High-throughput results (PubChem BioAssay)
LANA-H2B inh: blocks KSHV LANA binding to histone H2A/H2B; Q9QR71; cell-free LANA-H2A/H2B peptide, fluorescence polarization; inhibition, % (concentration not given with the values); 0.6% of 320,000 active; AID 2629; in the data active = inhibition mostly above about 10%, no sharp cut-off; inactive = mostly below about 6.7%;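 also: stock transfer was 7.5 nL into about 10 µL; 0% = median of vehicle wells and 100% = median of positive control wells; one replicate is shown; the record names a cut of 25% in any replicate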
Target sequence (Q9QR71 whole entry, looked up): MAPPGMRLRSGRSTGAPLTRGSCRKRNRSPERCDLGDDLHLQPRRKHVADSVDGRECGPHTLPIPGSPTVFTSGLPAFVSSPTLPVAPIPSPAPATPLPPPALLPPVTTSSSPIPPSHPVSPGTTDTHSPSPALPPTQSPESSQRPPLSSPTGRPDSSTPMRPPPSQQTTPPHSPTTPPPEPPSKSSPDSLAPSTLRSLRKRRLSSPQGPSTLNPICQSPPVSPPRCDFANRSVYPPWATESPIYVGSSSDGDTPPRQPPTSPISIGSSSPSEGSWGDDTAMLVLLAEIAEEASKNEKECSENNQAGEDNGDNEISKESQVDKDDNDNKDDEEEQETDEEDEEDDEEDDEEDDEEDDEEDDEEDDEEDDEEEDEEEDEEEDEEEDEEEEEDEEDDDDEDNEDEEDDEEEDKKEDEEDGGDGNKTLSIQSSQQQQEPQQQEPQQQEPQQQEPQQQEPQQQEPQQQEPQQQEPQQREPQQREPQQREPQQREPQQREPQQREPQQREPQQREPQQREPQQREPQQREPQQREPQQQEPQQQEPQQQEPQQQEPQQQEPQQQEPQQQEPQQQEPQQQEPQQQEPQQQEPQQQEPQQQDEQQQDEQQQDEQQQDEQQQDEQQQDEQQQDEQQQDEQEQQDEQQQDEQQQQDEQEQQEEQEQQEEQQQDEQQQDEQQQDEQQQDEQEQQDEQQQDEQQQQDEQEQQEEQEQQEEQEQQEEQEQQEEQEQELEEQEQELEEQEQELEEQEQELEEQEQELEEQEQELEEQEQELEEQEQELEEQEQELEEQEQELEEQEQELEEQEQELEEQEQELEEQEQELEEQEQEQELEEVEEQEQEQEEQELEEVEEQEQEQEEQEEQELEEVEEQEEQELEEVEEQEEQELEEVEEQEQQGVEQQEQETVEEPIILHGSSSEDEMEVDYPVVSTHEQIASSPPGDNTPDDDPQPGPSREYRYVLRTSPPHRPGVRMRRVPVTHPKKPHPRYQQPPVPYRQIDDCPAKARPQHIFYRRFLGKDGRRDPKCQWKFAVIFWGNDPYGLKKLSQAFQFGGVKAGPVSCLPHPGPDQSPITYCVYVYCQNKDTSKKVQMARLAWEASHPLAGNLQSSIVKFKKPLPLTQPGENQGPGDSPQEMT
UCH37 inh: human UCH37 deubiquitinating enzyme inhibition. purified proteasome/UCH37, Ub-AMC cleavage fluorescence. AID 588478. 0.33% of 330,000 active. inhibition, % (test concentration not listed);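 active = mean of two replicates above 20%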;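 also: 0% = compound-free wells with enzyme and 100% = wells lacking proteasome; stock transfer was 100 nL into about 20 µL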
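Signal – fluorescence, ex 355 nm, em 460 nm · System – Proteasome-bound UCH37 · Input – 0.15 nM proteasome as dispensed · Timing – 30 min preincubation with enzyme, 25 min cleavage at room temperature · Read-out basis – percent inhibition of cleavage signal versus uninhibited and no-proteasome wells · Medium – Tris-HCl pH 7.4 with ATP-MgCl2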
HNF4A DNA FP: change in binding of human HNF4 alpha to DNA | 0.3% of 360,000 active | P41235 | HNF4a-FITC DNA binding, fluorescence polarization, 1 h | activity change, % at 10 µM; in the data active = activity change above about 30%, passing the limit was not always enough;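 also: controls were the assay level and a saturating level of protein; the project sought stronger binding though the title names inhibitors; some compounds called inactive have numbers as strong as hits; positive values seem to mean higher polarization but the record does not say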
A1 inh: inhibitors of the anti-apoptotic protein A1, read as caspase activation; caspase activation, % (test concentration not listed); 0.066% of 330,000 active; AID 2462; MEF A1-2A-BIM cells, Caspase-Glo 3/7 luminescence, 3 h; percent of clofoctol response, vehicle zero;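 active = over half of replicate activation scores above 10%, or exactly half above 10 with the replicate mean above 10; inconclusive = replicate mean below 10 yet half the replicates above 10; inactive = over half of replicates below 10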;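 also: wells of about 30 µL received 50 nL stock; many hits fall short of the cut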
Ecoli growth: blocks Escherichia coli growth; 0.21% of 330,000 active; OD600 absorbance (no concentration beside the values); OD600, 23 h; hits give low values;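 active = OD600 absorbance below the run mean of sample wells minus 3.6 SD, in any replicate, cut at about 0.56 in these data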;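 also: stock transfer was 300 nL into about 60 µL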
Beta2AR agonist: agonists of human beta-2 adrenergic receptor inducing internalization; P07550; response, % (concentration not given with the values); Am2.2-beta2AR cells, FAP receptor internalization, flow cytometry; reference of the scale not given here; 0.43% of 340,000 active;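 active = response above a set limit, near 3 SD of response in nonfluorescent compounds, cut at about 42% in these data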;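 also: stock transfer was 100 nL into about 11 µL; a reference agonist was the positive control; negative values mostly stem from fluorescent compounds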
Vif TR-FRET: inhibitors of Vif binding to APOBEC3G peptide, primary screen, biochemical, TR-FRET, GST-Vif 1-94, biotin-A3G peptide, dose response retest (AID 1117319); one-dose inhibition, %; IC50 in µM for titrated hits; 0.57% of 260,000 active; TR-FRET GST-Vif / biotin-A3G peptide binding; higher % means a stronger effect; test concentration not given here; strong numbers were not always called active;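 active = above the screen mean plus three standard deviations and confirmed in dose response; inconclusive = results disagree or hit not tested in dose response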;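 also: Vif residues 1-94 fused to GST binding biotinylated APOBEC3G peptide 110-148; 0% = full assay without inhibitor and 100% = GST in place of GST-Vif; retest series ran down from 100 µM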
Starred values were filed as active, the others as inactive; i = inactive; ? = inconclusive; / = no result given; & = joins results of further samples.

cpd | SMILES | LANA-H2B inh | UCH37 inh | HNF4A DNA FP | A1 inh | Ecoli growth | Beta2AR agonist | Vif TR-FRET
1 | COc1ccc(N2CCN(C(=O)CSc3nnc(COc4cccc5cccnc45)o3)CC2)cc1 | -4.4 | 5.2 | 1.4 | 1.2 | 0.66 | -1 | 2%&2%
2 | COc1ccc(/C=N/NC(=O)c2cccnc2)cc1COc1ccc(NC(C)=O)cc1 | 4.4 | / | -0.6 | -0.2 | / | 13 | -2%
3 | O=C(NC(=S)Nc1ccc2oc(=O)ccc2c1)c1ccco1 | 3.0 | 2.5 | -1.4 | 1.9 | 0.69 | -14 | 5%
4 | CCC(C(=O)NCc1cccnc1)n1nc(C)n2c(cc3occc32)c1=O (stereo not given) | -4.5 | 5.0 | -3.6 | 1.0 | 0.71 | -8 | /
5 | CCCC(c1nnnn1C(C)(C)C)N1CCN(Cc2ccccc2OC)CC1 (stereo not given) | 2.3 | 3.5 | -0.7 | -1.3 | 0.68 | 2 | ?
6 | Cn1ncc(SCc2ccccc2)c(Cl)c1=O | 0.7 | 0.6 | -3.4 | 0.6 | 0.67 | -5 | 5%
7 | CN(C)S(=O)(=O)c1cc(C(=O)OCCn2cnc3c2c(=O)n(C)c(=O)n3C)ccc1Cl | 1.2 | -0.1 | -0.4 | -0.4 | 0.65 | -8 | -1%
8 | CCCC1=C(C(=O)OCC)C(c2c(C)nn(-c3ccccc3)c2Cl)C(C#N)=C(N)O1 (stereo not given) | -3.8 | 2.8 | -1.3 | -0.1 | 0.68 | 9 | ?
9 | Cc1ccc(Cc2nc(-c3cccnc3)no2)cc1 | -1.0 | -2.5 | -1.8 | -0.2 | 0.66 | 2 | 4%
10 | Cc1cc(=O)oc2c(C)c(OC3CCCCC3=O)ccc12 (stereo not given) | -4.8 | -100 | 2.5 | -0.2 | 0.63 | -5 | /
11 | COCCNC(=O)c1ccccc1NC(=O)c1ccccc1SC | -2.4 | 1.2 | 0.3 | -0.4 | 0.71 | -3 | 1%
12 | C=CCn1c(SCC(=O)N2CCN(CCO)CC2)nc2sc3c(c2c1=O)CCC3 | 0.0 | 4.8 | 3.6 | 0.7 | 0.71 | 0 | 2%
13 | Cc1nn(-c2ccccc2)c(Cl)c1C(=O)Nc1c(C)n(C)n(-c2ccccc2)c1=O | -0.5 | -0.6 | 0.1 | 0.3 | 0.69 | 5 | -15%
14 | CCOc1ccc(/C=C/C(O)=C2/C(=O)NC3(C)CC2c2ccccc2O3)cc1OC (stereo not given) | -2.1 | -55 | 2.4 | 0.8 | 0.73 | 14 | 6%
15 | Cc1ccc(NC(=O)CNc2cccc(S(=O)(=O)N3CCOCC3)c2)cc1F | 5.0 | -1.7 | -8.2 | -0.3 | 0.64 | -1 | -3%
16 | Cc1cc(C)n(S(=O)(=O)c2ccccc2[N+](=O)[O-])n1 | 1.2 | 1.5 | -1.1 | 0.4 | 0.71 | 8 | /
17 | C/C(=N\O)C(C)(C)Nc1ccc(F)cc1 | 2.3 | / | -1.3 | 0.4 | / | 0 | -4%
18 | O=C(COC(=O)CCc1nc2ccccc2c(=O)[nH]1)Nc1ccccc1OC(F)F | -5.3 | -0.4 | -1.4 | -0.5 | 0.64 | 2 | 9%
19 | COc1ccc(NC(=O)NCCCN2CCC(Cc3ccccc3)CC2)cc1 | -3.5 | -0.7 | 3.7 | -0.5 | 0.62 | -3 | ?
20 | CCOC(=O)N1CCN(C(=O)CSc2ccc(-c3ccc(OC)cc3)nn2)CC1 | 0.2 | -0.1 | -3.1 | -0.5 | 0.69 | 1 | 5%
21 | COc1ccc2cc3cc(C(=O)N4CCCCC4C)oc3nc2c1 (stereo not given) | 0.3 | -152 | 4.1 | -12 | 0.69 | 8 | -12%
22 | O=[N+]([O-])c1ccc(NN=CCCc2ccccc2)nc1 | / | 4.2 | -3.0 | / | 0.66 | 3 | 1%
23 | Cc1ccc(C(=O)NCC(c2cccs2)N(C)C)cc1S(=O)(=O)N1CCOCC1 (stereo not given) | 2.2 | -2.3 | 1.5 | -1.2 | 0.65 | 9 | -8%
24 | Nc1c([N+](=O)[O-])c(=O)oc2ccccc12 | -1.5 | 10 | 2.7 | 0.4 | 0.62 | -2 | 23%
25 | COc1cc(OC)cc(-c2nc(-c3ccccc3)no2)c1 | -2.4 | 4.4 | -2.7 | 1.4 | 0.71 | -2 | 24%
26 | NC(=O)CC[C@@H]1NC(=O)[C@H](Cc2ccc(O)cc2)NC(=O)c2cc([N+](=O)[O-])cc(F)c2OCC[C@@H](C(N)=O)NC1=O | 3.1 | 1.5 | -1.3 | -1.3 | / | -2 | 13%
27 | CC(CN1CCC(n2nccc2NC(=O)c2ccccc2Cl)CC1)c1ccccc1 (stereo not given) | -3.0 | 0.0 | -7.8 | 0.2 | 0.69 | 11 | 6%
28 | COc1ccc(CCNC(=O)c2cc(S(=O)(=O)N3CCCCCC3)ccc2OC)cc1OC | / | 7.5 | -3.2 | / | 0.7 | 10 | -6%
29 | Cc1cc(S(=O)(=O)Nc2nc(CN3CCOCC3)nc3sc4c(c23)CCCC4)ccc1F | -4.9 | -6.2 | 2.7 | 1.2 | 0.72 | 4 | 1%
30 | Cc1ccc(NC(=O)[C@H](C)NC(=O)C2CCN(C(=O)[C@H](CC(C)C)NC(=O)OC(C)(C)C)CC2)cc1 | 1.1 | 4.6 | 0.6 | -0.3 | 0.66 | 7 | -3%
31 | c1c[nH]c(CN2CCN(Cc3ncc[nH]3)CC2)n1 | / | / | 1.1 | / | / | -2 | -3%
32 | Cn1nnnc1SCCNCC#Cc1ccccc1 | 4.3 | -2.0 | -2.1 | -0.1 | 0.65 | -5 | -1%
33 | Cc1occc1-c1nnc(SCC(=O)Nc2ccc(F)cc2)n1Cc1ccccc1 | -26 | 1.8 | -0.7 | -0.5 | 0.69 | -4 | -7%
34 | CC(C)n1nnc2c(=O)oc3ccccc3c21 | 1.5 | 2.4 | 1.0 | 0.9 | 0.68 | 6 | -2%
35 | CSCC[C@H](NC(=O)OC(C)(C)C)C(=O)N/N=C/c1cccc2cccnc12 | -1.3 | / | -1.5 | 0.7 | / | 0 | 19%
36 | COc1ccccc1N1CCN(c2ccc([N+](=O)[O-])cc2Cl)CC1 | -0.6 | 2.8 | -2.1 | -0.3 | 0.72 | 4 | 0%
37 | Cc1ccc(-n2nc3c(=O)n(CC(=O)NCCc4ccco4)nc(C)c3c2C)cc1 | 2.1 | 4.6 | 8.6 | 1.3 | 0.7 | 3 | /
38 | CC(C)c1ccc(NC(=O)CCCN2C(=S)NC(C)(C)CC2C)cc1 (stereo not given) | -3.6 | 3.7 | -3.2 | 0.2 | 0.71 | 12 | 4%
39 | Cc1cc(C)nc(SCc2nc3ncccn3c2Br)n1 | -2.8 | -253 | -2.1 | -0.2 | 0.76 | -34 | -4%
40 | CC1(C)Oc2ccc3ccc(=O)oc3c2-c2cnoc21 | 0.3 | / | 3.2 | 0.1 | / | 7 | -4%
41 | Cc1ccc(-c2cc(C(=O)NN=C3CCCC3)c3ccccc3n2)cc1 | 0.9 | 0.9 | -0.2 | -0.6 | 0.7 | -24 | ?
42 | CCOC(=O)C1=C(NC(=O)c2ccc(Br)o2)Nc2ccccc2N=C1 | -9.0 | 5.0 | 1.7 | 1.4 | 0.68 | -12 | 1%
43 | O=C(CSc1nc2ccccc2c(=O)n1CCC(=O)N1CCN(c2ccccc2)CC1)NCC1CCCO1 (stereo not given) | 2.4 | 3.1 | -5.1 | 0.4 | 0.68 | -1 | 7%
44 | Cc1c(NC(=O)C(C)OC(=O)c2ccc([N+](=O)[O-])cc2Cl)c(=O)n(-c2ccccc2)n1C (stereo not given) | / | 2.8 | 0.2 | / | 0.65 | -3 | 0%
45 | Cc1csc(C(=O)O)c1NC(=O)c1ccc(F)cc1 | 2.1 | 0.7 | -3.1 | -0.1 | 0.66 | -3 | -2%
46 | Cc1ccc(NC(=O)c2ccc(CSc3nnc(-c4ccncc4)n3C)cc2)cc1 | 1.8 | 2.0 | -2.5 | 0.9 | 0.73 | 0 | -3%
47 | CCc1nc(Cl)c(C#N)c2c1CSC(C)(C)C2 | -0.9 | 5.6 | -3.2 | -0.9 | 0.71 | 2 | 2%
48 | CCC1=Nc2cc(C(=O)NCc3ccco3)ccc2Sc2ccc(C)cc21 | i | 2.7 | 3.4 | 0.3 | 0.69 | 15 | 13%
49 | Cc1ccc2oc(=O)c3cnn(CC(=O)N4CCN(c5ccccn5)CC4)c3c2c1 | 1.7 | 1.3 | 0.1 | 0.4 | 0.68 | 0 | -3%
50 | CCCCNC(=O)NNC(=O)c1ccco1 | 1.8 | 1.3 | 1.1 | 0.1 | 0.65 | -2 | /
51 | Cc1cc(=O)oc2cc(Oc3ccc([N+](=O)[O-])cc3C(F)(F)F)ccc12 | -0.8 | 1.7 | -2.3 | 0.1 | 0.7 | -4 | 11%
52 | N#CC(CCc1ccc([N+](=O)[O-])cc1)(CCc1ccc([N+](=O)[O-])cc1)C(N)=O | / | -0.4 | -12 | / | 0.72 | 2 | 8%
53 | O=[N+]([O-])c1cc([N+](=O)[O-])c2cc3ccccc3nc2c1 | 2.4 | / | 0.3 | -0.9 | / | 32 | /
54 | O=C(NC(=S)N1CCN(c2ccccn2)CC1)c1ccco1 | 2.1 | 3.1 | -2.2 | 0.7 | 0.66 | -2 | 19%
55 | NC(=O)c1coc(-c2ccccc2)n1 | -0.2 | -0.5 | -1.7 | 0.6 | 0.66 | -4 | 3%
56 | COc1ccc(CCNC(=O)CN2CCC(C(N)=O)CC2)cc1 | -1.5 | -0.5 | 3.1 | 0.1 | 0.68 | 3 | -2%
57 | COc1ccc(N2CC(=O)N(c3ccccc3)C2=S)cc1 | 7.4 | 4.6 | -2.3 | 0.6 | 0.71 | 5 | /
58 | O=C(CSc1ncccn1)NCc1ccc(Cl)cc1 | -2.8 | 0.6 | 2.0 | -0.4 | 0.67 | -3 | /
59 | CCOCCc1nnc(NC(=O)c2cc(OC)c(OC)c(OC)c2)s1 | -5.1 | 1.2 | -2.7 | 0.1 | 0.75 | -1 | 4%
60 | CCC(Oc1ccccc1)C(=O)Nc1ccc(S(=O)(=O)Nc2ncccn2)cc1 (stereo not given) | 4.5 | 2.8 | -0.3 | 0.5 | 0.67 | 3 | 4%

Two records drawn at random from those above, as already listed:
cpd | SMILES | LANA-H2B inh | UCH37 inh | HNF4A DNA FP | A1 inh | Ecoli growth | Beta2AR agonist | Vif TR-FRET
49 | Cc1ccc2oc(=O)c3cnn(CC(=O)N4CCN(c5ccccn5)CC4)c3c2c1 | 1.7 | 1.3 | 0.1 | 0.4 | 0.68 | 0 | -3%
32 | Cn1nnnc1SCCNCC#Cc1ccccc1 | 4.3 | -2.0 | -2.1 | -0.1 | 0.65 | -5 | -1%

Later entries.
cpd | SMILES | LANA-H2B inh | UCH37 inh | HNF4A DNA FP | A1 inh | Ecoli growth | Beta2AR agonist | Vif TR-FRET
61 | COC(=O)C1(Cc2cc(-c3ccc(OC)cc3OC)no2)CCN(C(=O)OC(C)(C)C)CC1 | -2.3 | 0.5 | -1.3 | 1.2 | 0.73 | -1 | /
62 | COC(=O)CSc1nc2c(cnn2-c2ccc(F)cc2)c(=O)[nH]1 | 0.0 | 0.8 | 5.0 | 0.2 | 0.71 | -5 | 0%
63 | Cc1ccc(C(=O)/C=C/N(C)C)o1 | 6.7 | 18 | -4.1 | 0.0 | 0.65 | 3 | /
64 | Cc1cccc(CC2CC(=O)N(c3nc4ccccc4s3)C2=O)c1 (stereo not given) | 5.2 | -1.2 | -1.4 | 0.9 | 0.69 | -8 | -12%
65 | O=C(NC1CCN(C(=S)NCc2ccco2)CC1)C12CC3CC(CC(C3)C1)C2 | -0.6 | 0.9 | -2.7 | 0.1 | 0.69 | -3 | 67%
